Beta2AR agonist: activates human beta-2 adrenergic receptor causing internalization; 0.43% of 340,000 active; Am2.2-beta2AR cells, FAP receptor internalization, flow cytometry; reference of the scale not given here; response, % (test concentration not listed); AID 504454;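 active means response above a set limit, near 3 SD of response in nonfluorescent compounds, cut at about 42% in these data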;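 further: stock transfer was 100 nL into about 11 µL; a reference agonist was the positive control; negative values mostly stem from fluorescent compounds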
Target sequence (P07550 whole entry, looked up): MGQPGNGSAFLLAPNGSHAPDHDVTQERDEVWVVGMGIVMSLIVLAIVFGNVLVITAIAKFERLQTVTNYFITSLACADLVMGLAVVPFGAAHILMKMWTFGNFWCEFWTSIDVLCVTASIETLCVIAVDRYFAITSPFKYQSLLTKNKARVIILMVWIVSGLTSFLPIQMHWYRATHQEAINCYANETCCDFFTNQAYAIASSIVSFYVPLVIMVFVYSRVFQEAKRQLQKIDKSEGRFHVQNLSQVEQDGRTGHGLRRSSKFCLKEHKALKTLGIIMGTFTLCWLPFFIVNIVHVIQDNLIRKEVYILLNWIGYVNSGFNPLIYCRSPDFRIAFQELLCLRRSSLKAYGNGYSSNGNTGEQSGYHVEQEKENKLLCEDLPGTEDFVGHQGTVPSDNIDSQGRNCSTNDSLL
Calb FLC: affects C. albicans growth with fluconazole; C. albicans CaCi-2 (fluconazole-resistant clinical isolate) + fluconazole, Alamar Blue growth, 48 h; growth inhibition, % (concentration not given with the values); 0.57% of 300,000 active; AID 1979;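 active means most replicates above 75%; inconclusive means exactly half above 75%; inactive means most below 75%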;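 further: all wells also contain fluconazole at 8 µg/ml as a sub-toxic cotreatment; 0% = median of DMSO wells and 100% = median of geldanamycin control wells; wells of about 8 µL received 7.5 nL stock; the first replicate is given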
HNF4A DNA FP: change in binding of human HNF4 alpha to DNA. activity change, % at 10 µM. P41235. 0.3% of 360,000 active. HNF4a-FITC DNA binding, fluorescence polarization, 1 h; in the data active means activity change above about 30%, passing the limit was not always enough;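 further: controls were the assay level and a saturating level of protein; the project sought stronger binding though the title names inhibitors; some compounds called inactive have numbers as strong as hits; positive values seem to mean higher polarization but the record does not say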
Target sequence (P41235 whole entry, looked up): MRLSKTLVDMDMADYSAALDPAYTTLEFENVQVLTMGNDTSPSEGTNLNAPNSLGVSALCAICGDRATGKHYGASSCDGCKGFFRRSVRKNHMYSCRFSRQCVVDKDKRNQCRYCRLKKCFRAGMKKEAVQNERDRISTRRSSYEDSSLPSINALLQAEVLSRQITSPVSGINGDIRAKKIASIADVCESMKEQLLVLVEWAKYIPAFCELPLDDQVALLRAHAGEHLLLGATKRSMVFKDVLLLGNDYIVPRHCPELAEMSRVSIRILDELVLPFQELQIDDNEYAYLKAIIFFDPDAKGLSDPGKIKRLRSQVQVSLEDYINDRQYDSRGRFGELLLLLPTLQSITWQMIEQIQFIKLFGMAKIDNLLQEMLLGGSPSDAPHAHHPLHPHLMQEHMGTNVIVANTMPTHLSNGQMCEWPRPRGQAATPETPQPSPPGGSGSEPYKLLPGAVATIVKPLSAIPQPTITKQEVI
LANA-H2B inh: blocks KSHV LANA binding to histone H2A/H2B | 0.6% of 320,000 active | inhibition, % (concentration not given with the values) | cell-free LANA-H2A/H2B peptide, fluorescence polarization | AID 2629; in the data active means inhibition mostly above about 10%, no sharp cut-off; inactive means mostly below about 6.7%;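 further: stock transfer was 7.5 nL into about 10 µL; 0% = median of vehicle wells and 100% = median of positive control wells; one replicate is shown; the record names a cut of 25% in any replicate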
ALR H2O2 inh: inhibitors of human sulfhydryl oxidase ALR; P55789; purified ALR, DTT oxidation, H2O2 HRP-luminol luminescence; inhibition, % (concentration not given with the values); 3.8% of 290,000 active; AID 485317;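 active means mean and each replicate at 75% or more; inconclusive means only one of the two met; inactive means neither met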;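 further: stock transfer was 7.5 nL into about 7.5 µL; 0% = neutral wells and 100% = wells with inactivated enzyme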
RanGTP-Imp inh: disruptors of Ran-importin-beta complex formation – biochemical, FRET, CFP-Ran, YFP-importin-beta, homogeneous, primary screen | 1.1% of 300,000 active | cell-free CFP-Ran/YFP-importin-beta FRET ratio | inhibition, % (no concentration beside the values);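 active means most replicates above 15%; inconclusive means exactly half above 15%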;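 further: 0% = DMSO wells and 100% = Ran loaded with GDP instead of GTP; wells of about 40 µL received 100 nL stock; the first replicate is given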
Vif A3G: HIV-1 Vif–A3G interaction blockers – biochemical, TR-FRET, GST-Vif 1-94, biotin-A3G peptide, dose response retest, primary screen (AID 1117319). TR-FRET GST-Vif / biotin-A3G peptide binding; higher % means a stronger effect; test concentration not given here; strong numbers were not always called active. one-dose inhibition, %; IC50 in µM for titrated hits. 0.57% of 260,000 active;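 active means above the screen mean plus three standard deviations and confirmed in dose response; inconclusive means results disagree or hit not tested in dose response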;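 further: Vif residues 1-94 fused to GST binding biotinylated APOBEC3G peptide 110-148; 0% = full assay without inhibitor and 100% = GST in place of GST-Vif; retest series ran down from 100 µM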
* hit, by the source's call; ? = inconclusive; nt = not tested or not shown; & = joins results of further samples.

# | smiles | Beta2AR agonist | Calb FLC | HNF4A DNA FP | LANA-H2B inh | ALR H2O2 inh | RanGTP-Imp inh | Vif A3G
1 | N#Cc1ccc(Oc2ccc(NC(=O)C3CC=CCC3C(=O)O)cc2)cc1 (stereo not given) | -2 | 7 | 4.7 | 2.2 | 4 | 3.0 | nt
2 | COc1nc(Nc2ccc(C(C)C)cc2)nc(OC)n1 | 4 | 51 | -2.9 | 3.2 | 7 | -1.8 | 1%
3 | CCC(C(=O)OC)n1cnc2c(nnn2-c2ccc(OC)cc2)c1=O (stereo not given) | -6 | -3 | -5.3 | 3.2 | 3 | 0.9 | 0%
4 | O=C(NCc1ccccc1)c1ccccc1OCC(=O)N1CCCCC1 | -7 | -7 | -0.2 | 2.3 | 5 | -1.3 | 2%
5 | CCOc1ccc(NC(=O)c2ccc(NS(=O)(=O)c3cccc4cccnc34)cc2)cc1 | 11 | nt | -7.1 | nt | nt | nt | 0%
6 | COc1ccc(-c2nn(-c3ccccc3)cc2/C=C(/C#N)C(N)=O)cc1[N+](=O)[O-] | -7 | 29 | -7.1 | -0.2 | -3 | 4.9 | 10%
7 | COc1ccc(C(=O)C[n+]2ccc3ccccc3c2C)cc1 | 3 | -13 | 1.7 | 0.5 | -7 | 8.3 | -2%
8 | O=C(CN1CCSC1=NCc1ccccc1)c1ccccc1 | -10 | -36 | 4.0 | 0.1 | -4 | 2.3 | 3%
9 | O=C(Cc1ccccc1)N1CCN(C(=O)c2ccco2)CC1 | -3 | -10 | -0.4 | -5.4 | 2 | 3.9 | -1%
10 | Cn1c(=O)n(C)c2cc(NS(=O)(=O)c3ccccc3[N+](=O)[O-])ccc21 | 11 | 8 | 2.7 | 1.8 | -21 | 0.7 | 6%
11 | CCN(CC)c1ccc2cc(C(N)=O)c(=N)oc2c1 | -106 | -4 | -22 | -5.8 | 26 | 151* | nt
12 | NC(=O)c1cnn(-c2cc(Oc3ccccc3)ncn2)c1N | 3 | 75 | -4.5 | -3.4 | -14 | 3.5 | 0%
13 | CC1(C)CC(=O)C(=CN2CCOCC2)C(=O)C1 | 3 | -3 | 1.9 | 1.2 | 0 | 5.6 | 6%
14 | CC[C@H](C)C(=O)O[C@H]1CCC=C2C=C[C@H](C)[C@H](CC[C@@H]3C[C@@H](O)CC(=O)O3)[C@H]21 | -9 | nt | 0.5 | -0.7 | -6 | 2.2 | -4%&31%
15 | COc1ccc(-c2nc(SC)n(S(=O)(=O)c3ccccc3)n2)cc1 | 5 | -1 | 2.1 | -1.7 | -31 | -3.8 | 20%
16 | COc1ccc(CN(CCC(c2ccco2)C(C)C)C(C)=O)cc1OC (stereo not given) | 5 | 27 | 3.1 | -0.8 | -3 | 2.8 | 5%
17 | C#CCOC(=O)Nc1cc(C)n(-c2ccccc2)n1 | 5 | 2 | 1.7 | 1.5 | 1 | -0.9 | -3%
18 | COC(=O)CCn1nc(-c2ccc(Cl)cc2)c2ccccc2c1=O | 8 | ? | 1.9 | -1.1 | -29 | 3.6 | nt
19 | Nc1nc2c(F)c(F)c(F)cc2s1 | -5 | 19 | 2.3 | 4.7 | nt | 3.8 | -8%
20 | COc1cc2c(c3ccccc13)CCCC2=O | 5 | nt | 0.0 | nt | nt | nt | -3%
21 | COc1ccccc1CNS(=O)(=O)c1ccc2c(c1)CC(C)N2C(=O)C1CCC1 (stereo not given) | -18 | -3 | -0.7 | -0.6 | -1 | -4.7 | nt
22 | CCCCCCC1CC(=O)NC(=S)N1 (stereo not given) | -5 | -3 | -2.9 | 2.2 | 2 | 0.3 | 6%
23 | COCCN(C(=O)Cc1cccs1)c1nnc(-c2ccncc2)s1 | -5 | 4 | 7.4 | 0.1 | 0 | 0.7 | -14%
24 | Cc1ccc(NC(=O)c2cccc3c2C(=O)N(C2CCCCC2)C3)c(C)c1 | -5 | 2 | -0.4 | -5.9 | -5 | 4.7 | 2%
25 | O=C(Cc1cccs1)Nc1ccc([N+](=O)[O-])cc1 | 2 | -39 | 2.5 | 2.6 | -2 | 5.6 | -6%
26 | CCOC(=O)C(C(C)=O)C(c1ccc(OCCC(C)C)cc1)C(C(C)=O)C(=O)OCC (stereo not given) | -7 | -2 | -0.6 | -1.6 | nt | ? | -3%
27 | COc1ccc(CN(C)S(=O)(=O)c2nnc(NC(=O)c3ccccc3)s2)cc1OC | 2 | -11 | 2.9 | -5.7 | -5 | -5.3 | nt
28 | CCCNC(=O)N1CCN(S(=O)(=O)c2ccc(C)c(C)c2)CC1 | -6 | -6 | -2.5 | -0.3 | 1 | -3.8 | 1%
29 | O=C(CNCC1CCCO1)N1CCCCCC1 (stereo not given) | 6 | 8 | -0.2 | -2.8 | 18 | 2.9 | nt
30 | Cc1nn(-c2ccccc2)c2nc(N)c(C(N)=O)cc12 | -7 | -1 | -8.6 | 1.8 | nt | -3.6 | -8%
31 | CCc1nc(N2CCC3(CC2)OCCO3)c2nnn(Cc3ccccc3)c2n1 | -1 | 2 | -3.3 | 1.1 | -3 | 0.8 | 4%
32 | Oc1oc(-c2ccccc2)nc1C=NCc1ccccc1 | -9 | -30 | -0.5 | -2.3 | 3 | 3.9 | 2%
33 | Cc1ccnc(SCC(=O)N2CCc3ccccc3C2)n1 | 0 | -7 | 2.7 | -0.3 | -7 | -0.7 | 1%
34 | CCOc1cccc(/C=N/NC(=O)c2cc(-c3cccn3C)n[nH]2)c1O | 5 | 24 | 0.3 | -5.4 | 45 | 9.4 | 17%
35 | O=C(NC1CCCCC1)c1cc(-c2ccc(O)cc2)on1 | -2 | 8 | -2.9 | 1.5 | -3 | ? | 8%
36 | COc1ccc(C(=O)OCC(=O)c2ccc(C)c(S(=O)(=O)N3CCOCC3)c2)cc1OC | 6 | -3 | -0.2 | -3.9 | nt | -1.3 | ?
37 | Cc1cc(Cl)ccc1OCCCC(=O)Nc1cccnc1 | -4 | 13 | -0.9 | 7.0 | 3 | 3.7 | 4%
38 | CC(=O)Oc1ccc(/C=N/NS(=O)(=O)c2ccc(C)cc2)c(OC(C)=O)c1 | 4 | 16 | -1.0 | -9.6 | 44 | -2.8 | nt
39 | Cc1ccc2cccnc2c1N | -5 | 1 | -1.9 | 3.2 | -278 | -2.3 | 7%
40 | COc1cc2c(cc1OC)-c1n[nH]c(=S)n1C(C)(C)C2 | 0 | -13 | -2.8 | -1.4 | 56 | -1.2 | 12%
41 | Nc1nnc(C2CCCC2)s1 | -4 | 16 | -5.3 | 2.0 | -4 | 6.4 | 5%
42 | COc1ccc(/C=C(/NC(=O)c2ccccc2)C(=O)NC2CCS(=O)(=O)C2)cc1 (stereo not given) | -1 | -2 | 3.3 | -4.4 | 2 | 1.0 | 17%
43 | CCCN(CCC)C(=O)Cn1c2ccccc2c2nc(=O)cc(C)n21 | 5 | 11 | 5.2 | 5.6 | nt | ? | 0%
44 | C[C@H]1COC(=O)[C@H](Cc2ccc(F)cc2)C/C=C\C[C@@H](CC(=O)N(CCO)Cc2ccccc2)C(=O)N1 | -4 | nt | -4.6 | 3.8 | -3 | nt | nt
45 | Cc1nnc(-c2cnn(-c3ccccc3)c2N)n1Cc1ccccc1 | -12 | -6 | -1.4 | -1.8 | 4 | -0.2 | -2%
46 | CC(=O)Nc1ccc(S(=O)(=O)Nc2cc(C)cn(Cc3ccc(C)cc3)c2=O)cc1 | 2 | -4 | 17 | -0.5 | nt | -6.6 | nt
47 | Brc1ccc(CSc2ccc(-c3ccco3)nn2)cc1 | 0 | -23 | 2.8 | -5.1 | 98* | nt | -32%
48 | O=C1C2C3C=CC(C4CC34)C2C(=O)N1/N=C/c1ccc([N+](=O)[O-])o1 (stereo not given) | 12 | 0 | -1.2 | 2.3 | -17 | ? | 12%
49 | O=C(Nc1ccc(-c2noc(CCc3ccccc3)n2)cc1)c1ccco1 | 4 | -10 | 0.3 | -4.6 | nt | 1.4 | -6%
50 | CC(=O)N1N=C(N)SC1(C)C | 6 | 6 | 3.6 | -2.9 | 12 | -2.4 | 2%

Continuation.
# | smiles | Beta2AR agonist | Calb FLC | HNF4A DNA FP | LANA-H2B inh | ALR H2O2 inh | RanGTP-Imp inh | Vif A3G
51 | CC(=O)N1CCc2cc(Br)cc(S(=O)(=O)NCC3CCCO3)c21 (stereo not given) | -6 | -5 | -0.4 | 0.2 | -3 | 1.6 | 12%
52 | CCN(CC)S(=O)(=O)c1cc(NS(=O)(=O)c2ccccc2)ccc1C | 7 | 11 | -1.6 | -5.0 | -14 | 2.8 | -6%
53 | O=C(NNC(=S)NC(=O)c1ccc(Br)cc1)c1ccc([N+](=O)[O-])cc1 | 0 | 87* | -1.2 | 5.1 | 100* | 4.4 | nt
54 | Cc1ccc(N(CN2CCCC2=O)C(=O)c2ccccc2)cc1 | -5 | ? | -1.1 | -0.3 | 1 | -3.3 | -9%
55 | COc1ccccc1C(=O)NC(CCSC)C(=O)Nc1ccc(C)c(S(=O)(=O)N2CCOCC2)c1 (stereo not given) | 11 | nt | 2.7 | -2.2 | nt | nt | nt
56 | Cc1ccc2c(c1)N(CC(=O)OCC(=O)NCc1ccccc1)C(=O)CO2 | 2 | 10 | 0.0 | -1.1 | 1 | 1.2 | 1%
57 | CC(C)(C)NC(=O)Nc1ccc2nccnc2c1 | -10 | 4 | -1.8 | -1.3 | -46 | 2.6 | -1%
58 | Cc1cc2cc(CNC(=O)C3CCCC3)ccc2n1C | 0 | 21 | -3.4 | 4.3 | 97* | -0.4 | nt
59 | C[C@H]1CN(S(=O)C(C)(C)C)[C@@H](CCO)/C1=C\CCO (stereo not given in full) | -6 | nt | -3.1 | nt | nt | nt | -7%
60 | CC1CCCC(NC(=O)CN2CCN(S(=O)(=O)c3cccs3)CC2)C1C (stereo not given) | -1 | nt | -2.1 | -1.0 | nt | nt | nt
61 | O=C(OCC(=O)N1CCCC1=O)c1ncc(Cl)c(Cl)c1Cl | 3 | 7 | 1.6 | 2.5 | 5 | -0.6 | 0%
62 | O=C(c1ccco1)N1CCC(N2CCN(c3ccccc3)CC2)CC1 | 0 | 3 | 2.0 | 2.9 | 37 | 2.3 | 14%
63 | COc1ccc2c(c1)cc1n2CCN=C1NCCO | 2 | 4 | 0.2 | -4.6 | -36 | -0.3 | -2%
64 | O=C(NCCc1cccnc1)C1CCC(=O)N(Cc2ccc(Cl)cc2)C1 (stereo not given) | -2 | -8 | 2.4 | nt | nt | -1.7 | nt
65 | O=C(Nc1ccsn1)c1ccc(Cl)cc1Cl | 0 | 1 | -0.6 | -4.5 | -12 | 3.6 | nt
66 | COc1ccc(C)cc1NC(=O)Cn1cnnn1 | -5 | 19 | 1.4 | -2.1 | nt | 0.6 | nt
67 | O=C(/C=C/c1cccc(F)c1)c1ccc(N2CCOCC2)cc1 | 5 | 1 | 2.1 | -2.7 | nt | 5.7 | -52%

Bioassay records as filed in PubChem BioAssay.
